ClpP mod = qHTS Assay for Activators of ClpP; AID 651965, 2013; ATP-dependent Clp protease proteolytic subunit (Bacillus subtilis (strain 168)), P80244; 1.9% of 340,000 active; Potency, µM (doses to about 57.5 µM), without a hit: top-dose activity change, negative = active; purified B. subtilis ClpP, FRET peptide cleavage, 20 min; active = well fitted falling curve with a large enough effect; inconclusive = small, poorly fitted or top-dose-only effect; inactive = no such curve, though single readings can be large or run the other way; note: the source files actives as falling curves though it sought activators and does not explain the sign; nearly all actives have a fitted effect of over 65% in size; many hits overshoot -100%
Target sequence (P80244 whole entry, looked up): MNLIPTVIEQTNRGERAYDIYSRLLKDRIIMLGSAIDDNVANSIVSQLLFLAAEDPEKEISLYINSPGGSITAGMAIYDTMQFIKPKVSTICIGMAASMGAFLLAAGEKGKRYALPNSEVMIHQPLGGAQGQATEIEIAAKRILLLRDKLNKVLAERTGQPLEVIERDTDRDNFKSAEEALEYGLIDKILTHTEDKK
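Purified B. subtilis ClpP, 10 microg/mL final in Tris/HCl pH8 with KCl, BSA, glycerol and Tween-20, cleaved an Abz/nitrotyrosine-quenched decapeptide. Fluorescence (ex 320, em 430) was read at 0 and 20 min at room temperature. Delta was normalized to 5.8 microM ADEP and DMSO/no-enzyme controls.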
Starred values were filed as active, the others as inactive; ? = inconclusive. Potency is the fitted concentration of half-maximal effect. Some of the compounds tested; the hit share may differ from the screen's.

Sample of the layout:
canonical_smiles | ClpP mod
COc1ccccc1NC(=O)Cn1c(=O)n(Cc2ccco2)c(=O)c2cccnc21 | -2.0%
O=C(Cc1ccccc1)Nc1c(C(=O)c2ccccc2)oc2ccccc12 | ?

All compounds of this part, from the first entry:
canonical_smiles | ClpP mod
COc1ccccc1NC(=O)Cn1c(=O)n(Cc2ccco2)c(=O)c2cccnc21 | -2.0%
O=C(Cc1ccccc1)Nc1c(C(=O)c2ccccc2)oc2ccccc12 | ?
O=C(C1CCCN(S(=O)(=O)c2cccc3nonc23)C1)N1CCN(c2cccc(C(F)(F)F)c2)CC1 (centres undefined) | -1.5%
Cc1ccc(-n2cnc3cc(C(=O)NCc4ccccc4Cl)ccc32)c(C)c1 | -6.5%
Cc1c(Cl)cccc1NC(=O)CNS(=O)(=O)c1cccs1 | -1.0%
Cc1cccc(N2CC(c3nc4ccccc4n3CCC3CCCCC3)CC2=O)c1 (centres undefined) | 0.2%
COc1ccc(Cn2c(NCC(C)C)nc3c2c(=O)n(C)c(=O)n3C)cc1 | -0.1%
CCCCc1c(-c2cccc(OC)c2)ncn1CCc1ccccc1OC | -0.4%
O=S(=O)(c1ccc(Cl)cc1)c1nc(-c2ccccc2Br)oc1N1CCOCC1 | ?
Cc1cccc(-c2nc(CN3CCCC(C(=O)N4CCN(c5cc(Cl)ccc5C)CC4)C3)c(C)o2)c1 (centres undefined) | -12.4%
Cc1ccc(O)c(NC(=O)c2cc(-c3ccc(F)cc3)no2)c1 | -2.0%
CCOC(=O)c1ccc(NC(=O)CN(c2ccc(C)cc2)S(=O)(=O)c2c(C)noc2C)cc1 | -0.2%
Cc1c(CCNC(=O)c2ccc(C(F)(F)F)cc2)sc2nc(-c3ccc(F)cc3)nn12 | 2.4%
O=C(CCC1CCCC1)N1CCc2c([nH]c3ccccc23)C1c1ccc(Cl)cc1 (centres undefined) | -3.8%
COCCCNC(=O)CCCn1c(=O)c2cccn2c2cccnc21 | 4.5%
CCOc1ccc(NC(=O)Cn2cnc3nc4c(cc3c2=O)CCCC4)cc1 | -1.8%
COc1ccc(-n2c(=O)c3c(c4cc(OC)ccc4n3C)n(Cc3ccc(F)cc3Cl)c2=O)cc1 | -21.6%
O=C1NC[C@H](CCCCN2C[C@H](Cc3ccc(O)cc3)N(CC3CCCCC3)C(=O)C2=O)N(CCc2ccccc2)C1=O | 1.1%
CCC(Oc1ccc(F)cc1)C(=O)Nc1nc(-c2ccc(F)cc2)ns1 (centres undefined) | -0.1%
Cc1ccc(NC(=O)c2cnn3c2NC(=C2CC2)C=C3C(F)F)cc1C | -3.8%
CC1CCN(CCCNC(=O)c2cc(Sc3ccc(F)cc3)nc3ccccc23)CC1 | -3.8%
Fc1ccc(NCc2ccccc2-c2nnc(-c3ccccc3Cl)o2)cc1 | -0.5%
COc1cc(OC)c(Nc2nc3ccc(C)cc3n3nnnc23)cc1Cl | -0.1%
CC(C)(C)OC(=O)N1CCC(c2c(C(=O)N3CCOCC3)cnn2-c2ccccc2Cl)CC1 | -1.3%
Cc1ccc(N2C(=O)CSC23C(=O)N(CC(=O)NCc2ccccc2)c2ccccc23)cc1 (centres undefined) | -3.6%
Cc1cc(C)c(S(=O)(=O)Nc2ccc(-c3ccc(N4CCCCC4)nn3)cc2)c(C)c1 | 0.2%
COc1ccc(NC(=O)c2cccn2-c2nnc(N3CCCCC3)s2)c(OC)c1 | 1.2%
COc1cc(OC)c(NC(=O)c2nn(C)c3c2COc2ccccc2-3)cc1Cl | -15.5%
Cc1ccc(Cl)cc1N1CCN(C(=O)c2cc(S(=O)(=O)N3CCCC3)cn2C)CC1 | 1.3%
Cc1cccc(-n2ccnc2SCC(=O)Nc2cc(C(F)(F)F)ccc2Cl)c1 | -3.4%

Three compounds already listed, sorted by SMILES length, low to high.
canonical_smiles | ClpP mod
COc1cc(OC)c(NC(=O)c2nn(C)c3c2COc2ccccc2-3)cc1Cl | -15.5%
Cc1ccc(N2C(=O)CSC23C(=O)N(CC(=O)NCc2ccccc2)c2ccccc23)cc1 (centres undefined) | -3.6%
CC(C)(C)OC(=O)N1CCC(c2c(C(=O)N3CCOCC3)cnn2-c2ccccc2Cl)CC1 | -1.3%

Next structures.
canonical_smiles | ClpP mod
Cc1ccc(NC(=O)c2c(C)oc3ccc(O)c(CN4CCCC4)c23)c(C)c1 | -5.4%
O=[N+]([O-])c1ccc(/C=C/c2ccnc3ccccc23)c([N+](=O)[O-])c1 | 1.3%
CC(C)(C)CC(C)(C)N=C1Nc2ccc(Cl)cc2N[C@]12C[C@H]1CCCC(=O)N3CC[C@@H](C2)[C@@H]13 | -2.3%
Cc1cc(C)cc(NC(=O)NCc2noc3ccccc23)c1 | -3.3%
CCN(CC)C(=O)c1sc2c(c1C)c(=O)n(-c1ccc(Cl)c(Cl)c1)c(=O)n2CC(=O)Nc1cccc(OC)c1 | -2.4%
O=C(CS(=O)(=O)c1cccc2nsnc12)NCc1ccccc1 | -5.7%
Cc1ccc(CNC(=O)C(CC(C)C)NS(=O)(=O)c2ccc3c(c2)oc(=O)n3C)cc1 (centres undefined) | -5.9%
N#Cc1ccccc1NC(=O)C(=O)NCC(c1cccnc1)N1CCc2ccccc21 (centres undefined) | 0.8%
CCc1ccc(S(=O)(=O)c2c(C(=O)c3ccccc3)cnc3ccc(CC)cc23)cc1 | -5.2%
Cc1ccccc1NC(=O)C1CCN(C(=O)c2ccc(F)cc2)CC1 | -1.8%
CCOc1ccc(NC(=O)Cn2c(=O)oc3cc(S(=O)(=O)NC4CCCC4)ccc32)cc1 | -0.5%
O=C(COC(=O)CNC(=O)C1CCCCC1)NC1CC1 | -0.5%
CCOC(=O)c1ccc(NC(=O)Cn2nc3c4ccccc4n(Cc4cccc(F)c4)cc-3c2=O)cc1 | 2.7%
CCC(Cn1nnc2ccccc2c1=O)NC(=O)Nc1cccc(Cl)c1 (centres undefined) | -2.2%
Cc1ccccc1Nc1sc(C(=O)c2ccccc2)c(N)c1C(=O)NCc1ccc(Cl)cc1 | -5.1%
CCCCC[C@H](C)N1C[C@H](COCc2ccccc2)Oc2cc(N3CCC[C@H]3CO)ccc2S1(=O)=O | ?
CCOC(=O)c1cc(S(=O)(=O)Nc2c(C)cc(C)cc2C)[nH]n1 | 1.0%
CCc1cc[n+](CC(=O)c2ccc(F)cc2)cc1C(=O)O | 0.8%
CCc1ccc(-n2c(C)nc3cc(C(=O)NCCc4ccccc4)ccc32)cc1 | -1.1%
COc1ccc(NS(=O)(=O)c2ccc3[nH]c4c(c3c2)CCCCC4)cc1 | -20.0%
COc1ccc(Cl)cc1NC(=O)C1CCCN(c2ncnc3onc(C)c23)C1 (centres undefined) | 0.9%
CCN(C(=O)c1cnc(N2CCOCC2)c2ccccc12)c1cc(C)ccc1C | -23.5%
COc1cc2c(-c3cccc(Cl)c3)nc3c(c(C)nn3-c3ccccc3)c2cc1OC | -28.4%
O=S(=O)(c1ccc(Cl)cc1)c1nnn2c1nc(NCc1cccs1)c1sccc12 | ?
CCCOc1ccc(CNC(=O)CCCN2C(=O)CSc3c2c(C)nn3-c2ccccc2)cc1 | -1.4%
O=C(Cn1cc(S(=O)(=O)c2ccc(F)cc2)c(=O)c2cc3c(cc21)OCO3)Nc1ccccc1 | -8.5%
Cc1cc(C)cc(NC(=O)Cn2c(=O)n(C(C)C)c(=O)c3oc4ccccc4c32)c1 | 5.8%
COc1ccc(OC)c(NC(=O)N2CCN(S(=O)(=O)c3ccc4c(ccn4C)c3)CC2)c1 | -19.5%
Cc1ccc(Cc2nc3ccccc3nc2SCC(=O)N2CCCCC2)cc1 | -5.6%
Cc1ccc(NC(=O)Cn2nc(C(F)(F)F)c3c2CCC3)cc1C | 1.5%
Cc1cccc(C(=O)Nc2sc3c(c2C(=O)Nc2ccccc2)CCC3)c1 | -23.3%
CCN(C(=O)c1cc2c(=O)n3cccc(C)c3nc2s1)c1ccc(C)c(C)c1 | -2.4%
Cc1c(C(=O)Nc2cccc(-c3nc4ccccc4s3)c2)oc2ccccc12 | 22.4µM*
O=C(CSc1nc2ccccc2c(=O)n1CCC(=O)NC1CCCCC1)Nc1ccccc1Cl | -1.1%
Cc1ccccc1C1C=C(c2ccc(Cl)cc2)Nc2nnnn21 (centres undefined) | -2.5%
CCOC(=O)c1ccc(NS(=O)(=O)c2cn(C)c(C)n2)cc1 | -9.4%
COc1cc(NC(=O)c2ncn(-c3ccccc3)n2)cc(OC)c1 | 0.0%
CCC(=O)N1CCCc2cc(S(=O)(=O)N3CCC(C(=O)Nc4ccc(F)c(F)c4)CC3)ccc21 | 0.4%
O=C(Nc1ccc2c(c1)OCCO2)C(C1CC1)n1c(=O)c(-c2ccccc2)nc2ccccc21 (centres undefined) | -11.8%
COc1cccc(CNC(=O)CCCn2ncn3c(cc4occc43)c2=O)c1OC | -4.6%
COc1ccc(OC)c(C2CC(=O)c3c([nH]c(C(=O)OCC4CCCCC4)c3C)C2)c1 (centres undefined) | 0.1%
COc1ccc(C(=O)Nc2ccc(-c3nc4cc(C)ccc4o3)c(O)c2)cc1 | -2.5%
Cn1c(=O)c2c(-c3ccccc3)n3c(c2n(C)c1=O)C(c1cc(Cl)ccc1O)Nc1ccccc1-3 (centres undefined) | 4.2%
O=C(Cn1ncc2c(=O)oc3ccccc3c21)N1CCN(c2ccc(Cl)cc2)CC1 | -1.5%
Cc1ccc2oc3c(c(=O)c2c1)C(c1ccccc1F)N(CCCN(C)C)C3=O (centres undefined) | -17.4%
CCOC(=O)N1CCN(C(=O)C[C@@H]2C[C@@]3(C(=O)OCC)CCCC=C3N(Cc3ccccc3)C2=O)CC1 | 3.9%
CCN(C(=O)Cn1c(=O)oc2cc(S(=O)(=O)N3CCCC3)ccc21)c1cccc(C)c1 | 0.9%
COc1ccccc1CNc1nc(-c2ccco2)nn1S(=O)(=O)c1ccc2ccccc2c1 | -3.2%
CCN(C(=O)c1cc2c(=O)oc3ccc(C)cc3c2s1)c1cc(OC)ccc1OC | -1.0%
CCOC(=O)Cn1c(=O)n(CC2CCCO2)c2nc(-c3ccccc3OC)nc(C(N)=O)c21 (centres undefined) | -1.9%

More compounds:
canonical_smiles | ClpP mod
Cc1cccc(CCNC(=O)C2CCN(c3ncnc4c3nc3n4CCCCC3)CC2)c1 | -1.2%
CCC(C)NC(=O)C1CCN(C(=O)c2ccc(-n3ccc4ccccc43)s2)CC1 (centres undefined) | -22.8%
Cc1ccc(-c2cc(C(=O)N(Cc3ccccc3)Cc3ccco3)no2)cc1F | -1.4%
COc1cc(C2N=C(N)Nc3nc4ccccc4n32)ccc1OCC(=O)O (centres undefined) | 0.2%
CC(C)CC(=O)Nc1ccc2nc(SCC(=O)N3CCCC3)sc2c1 | -1.1%
Cc1c(NC(=O)Nc2ccc(Cl)c(C(F)(F)F)c2)c(=O)n(-c2ccccc2)n1C | -2.5%
COc1ccc(CNC(=O)c2ccc(CS(=O)(=O)c3ccccc3OC)o2)cc1 | -1.0%
Cc1nn2c(=O)cc(COC(=O)c3ccc(NC(=O)COc4ccc(C)c(C)c4)cc3)nc2s1 | -12.9%
Cc1ccc(NC(=O)c2c(C)oc3ccc(O)c(CN4CCN(Cc5ccccc5)CC4)c23)cc1 | -8.0%
Fc1ccc(C(NCCc2ccc(Cl)cc2)c2nnc(-c3ccccc3)o2)c(Cl)c1 (centres undefined) | -0.5%
CCN(CC)c1ccc(NC(=O)CN2CCN(S(=O)(=O)c3ccc(C(C)C)cc3)CC2)cc1 | -14.2%
CCc1c(C)sc2c1CCN(Cc1ccc(C#N)cc1)C2c1ccccc1 (centres undefined) | ?
CCC(Oc1ccccc1)C(=O)Nc1ccc(OCc2cc(=O)n3ccc(C)cc3n2)cc1 (centres undefined) | -5.3%
CC(C)Cn1c(=O)c2ccccc2n2c(CCC(=O)NCc3ccc(Cl)cc3)nnc12 | -1.1%
CCc1ccc(-n2c(=O)c3c(C)c(C(=O)N(C)C)sc3n(Cc3cccc(C)c3)c2=O)cc1 | -1.9%
CC(=O)NCCCc1ccc(C(=O)COC(=O)CNC(=O)c2ccc3ccccc3c2)cc1 | -17.3%
Cc1ccc(-n2nc3c(N4CCC(C(=O)N5CCCCC5)CC4)nnc(C)c3c2C)cc1 | ?
COc1ccc2c(c1)CCc1c(C(=O)Nc3ccc(F)c(Cl)c3)noc1-2 | 1.3%
Cc1cc(O)cc2c1O[C@](C)(CCC(=O)O)CC2 | 0.3%
COc1ccc(-n2nc(C(=O)N3CCN(c4ccccc4OC)CC3)c3c4ccccc4n(C)c3c2=O)cc1 | -4.4%
CCc1ccc(NC(=O)c2ccc(F)c(S(=O)(=O)NC3CCCCCC3)c2)cc1 | -2.3%
COc1cc(C(=O)NCC(c2cccnc2)N2CCc3ccccc32)cc(OC)c1OC (centres undefined) | 0.7%
COc1ccc(S(=O)(=O)N(CC(=O)NCc2ccc(C)cc2)c2ccc(Cl)cc2)cc1 | -3.8%
Cc1ccc(N2CC(NC(=O)c3ccco3)CC2=O)cc1C (centres undefined) | -0.3%
CC(C)CC(=O)Nc1ccc(C(=O)OCc2cc(=O)n3nc(C(C)C)sc3n2)cc1 | -3.2%
Cc1cccc(Oc2nc3ccccn3c(=O)c2/C=C(\C#N)c2nc3ccccc3s2)c1C | 4.0%
COc1cccc(C(=O)Nc2cccc(-c3cn4ccsc4n3)c2)c1OC | 0.2%
CCN(CC)c1ccc(C(=O)NCc2nc3cccnc3n2Cc2ccc(C)cc2)cc1 | -11.6%
CCN(CC)Cc1c(NC(=O)c2ccc(OC)cc2)sc2c1CCCC2 | -3.7%
